N370S GC – N370S glucocerebrosidase modulation, Gaucher chaperone candidate; N370S GC spleen homogenate, 4MU-glucoside fluorescence; Potency, µM (titrated, usually from 59.4 µM), inactives show top-dose activity change, negative = inhibition, hits mostly inhibitors; 0.092% of 330,000 active;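 also: 0% = full enzyme activity and -100% = no enzyme basal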
GCN5L2 inh – blocks human GCN5L2 histone acetyltransferase; Q92830; 0.21% of 390,000 active; GCN5L2 HAT assay, ThioGlo1 CoA-SH fluorescence; AID 504327; Potency, µM (doses to about 58.9 µM), for inactives: top-dose activity change, negative = inhibition, hits mostly inhibitors
Target sequence (Q92830 whole entry, looked up): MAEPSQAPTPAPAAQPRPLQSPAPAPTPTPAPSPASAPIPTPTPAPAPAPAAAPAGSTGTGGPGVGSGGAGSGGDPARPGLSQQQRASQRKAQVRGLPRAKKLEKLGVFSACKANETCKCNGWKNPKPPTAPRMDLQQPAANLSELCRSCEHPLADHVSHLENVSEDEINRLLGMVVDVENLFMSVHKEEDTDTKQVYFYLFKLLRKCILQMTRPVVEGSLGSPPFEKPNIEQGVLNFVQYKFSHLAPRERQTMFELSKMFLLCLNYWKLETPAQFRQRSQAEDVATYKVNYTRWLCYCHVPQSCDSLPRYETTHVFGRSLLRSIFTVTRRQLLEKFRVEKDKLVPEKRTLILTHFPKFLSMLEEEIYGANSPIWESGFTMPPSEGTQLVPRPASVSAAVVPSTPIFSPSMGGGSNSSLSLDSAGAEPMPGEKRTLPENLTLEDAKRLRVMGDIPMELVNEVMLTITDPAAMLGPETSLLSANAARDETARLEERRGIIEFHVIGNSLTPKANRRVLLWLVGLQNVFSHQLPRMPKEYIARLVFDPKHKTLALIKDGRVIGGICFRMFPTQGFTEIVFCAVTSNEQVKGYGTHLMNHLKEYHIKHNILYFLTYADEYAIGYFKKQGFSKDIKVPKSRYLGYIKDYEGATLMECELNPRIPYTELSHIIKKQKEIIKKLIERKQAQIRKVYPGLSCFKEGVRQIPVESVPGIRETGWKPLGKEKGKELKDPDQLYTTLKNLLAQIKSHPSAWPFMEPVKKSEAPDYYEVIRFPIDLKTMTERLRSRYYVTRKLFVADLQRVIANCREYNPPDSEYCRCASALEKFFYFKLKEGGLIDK
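GCN5L2 (20 nM) in 50mM HEPES pH 7.5, 0.1mM EDTA, 0.01% Tween-20 preincubated 15 min with compounds at room temperature. Reaction started with H3(1-25) 75uM, acetyl-CoA 70uM, ThioGlo1 50uM; CoA-thiol fluorescence (Ex340/Em540) read at 0 and 20 min.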
* = called active by the depositor; ? = inconclusive; / = no result given; & = joins results of further samples; [ ] = dose if it differs, or a comment. Calls follow the shape of the dose curve; as a rule, active = well fitted curve in the direction sought with a large enough effect; inconclusive = small, poorly fitted or top-dose-only effect, or another doubt; inactive = no such curve, though single readings can be large; an effect the other way counts as inactive or inconclusive. Unless noted, % is scaled to controls: 0 for no effect and ±100 for the full control effect; potency is read from the fitted curve at half-maximal effect. The list is partial, and most or all hits are left out here.

SMILES | N370S GC | GCN5L2 inh
CCOc1ccc(OCC)c(NC(=O)CN2CCN(c3cccc(C)c3)C(C)C2)c1 (stereo not given) | 13% | -7%
COC(=O)c1ccc(CC(=O)c2ccc(O)cc2O)o1 | -9% | -5%
COc1ccc(NC(=O)c2ccc(NS(=O)(=O)c3c(C)noc3C)cc2)cc1OC | -7% | -12%
CCOC(=O)c1cc2c(=O)n3ccccc3nc2n(CC2CCCO2)c1=NC(=O)c1ccc(C)cc1 (stereo not given) | / | -16%
Cc1cc(-c2ccc(C)c(S(=O)(=O)N3CCN(C(=O)c4ccco4)CC3)c2)on1 | -6% | -6%
CCc1nc(SCC(=O)NCc2ccccc2)c2c(=O)n(C)c(=O)n(C)c2n1 | -13% | -18%
COc1ccc(C(=O)NNS(=O)(=O)c2ccc(OC)cc2)cc1 | 3% | -6%
NC(=O)Nc1ccc(C(=O)OCC(=O)Nc2cccc(S(=O)(=O)NC3=NCCCCC3)c2)cc1 | -8% | ?
COc1ccccc1C(=O)NCCC(=O)N1CCN(S(=O)(=O)c2ccc(Cl)cc2)CC1 | / | 0%
Cc1ccc(S(=O)(=O)N2CCC(C(=O)NCc3ccccc3CN3CCCC3)CC2)cc1C | / | 4%
Cc1nn(C)c(C)c1NC(=O)COc1ccc(F)cc1Br | / | 4%
S=c1nc[nH]c2c1cnn2-c1ccccc1 | -3% | -7%
Cc1nn(C)c(C(=O)Nc2ccc(Cl)c([N+](=O)[O-])c2)c1Cl | -24% | 0%
COc1ccc(C2C(C(=O)N3CCCCC3)CC(=O)N2c2ccc(OC)cc2)cc1 (stereo not given) | -23% | -4%
Cc1ccc(-c2cc(C(=O)OCC(=O)N(C)c3c(N)n(Cc4ccccc4)c(=O)[nH]c3=O)c3ccccc3n2)o1 | 0% | -4%
CCOc1ccc(OCC)c(NC(=O)c2[nH]c(C)c(C(C)=O)c2C)c1 | 5% | -10%
COC(=O)c1ccc(NC(=O)CSc2nnc(C)n2CC2CCCO2)cc1 (stereo not given) | 0% | -4%
CCC(=O)Nc1cccc(-c2ccc(N3CCCCC3)nn2)c1 | 0% | 0%
Fc1ccc(-c2nnc(-c3ccc(F)cc3)o2)cc1 | -12% | 0%
COc1ccc2c(c1)C(=O)N(c1ccccc1)C(=O)C2 | ? | ?
COc1cc(OC)c(NC2c3ccccc3C(=O)N2c2cc(C)ccn2)cc1Cl (stereo not given) | 7% | -2%
CC(CS(=O)(=O)c1ccccc1[N+](=O)[O-])N1CCOCC1 (stereo not given) | 3% | 1%
O=C(c1ccco1)N(Cc1ccc2c(c1)OCO2)Cc1cc2cc3c(cc2[nH]c1=O)OCO3 | 3% | -20%
CCOC(=O)C1=C(N)n2c(s/c(=C\c3ccco3)c2=O)=C(C(=O)OCC)C1c1ccco1 (stereo not given) | -7% | ?
Cc1cc(NC(=O)Nc2ccc(OCc3ccccc3)cc2)n(C)n1 | -8% | -2%

(list continues)
SMILES | N370S GC | GCN5L2 inh
COc1cccc(/C=N/NC(=O)c2[nH]nc3c2CCc2ccccc2-3)c1 | 0% | 1%
CC(=O)Oc1ccc(C(=O)Nc2nnc(C)s2)cc1 | -40% | -5%
CCOc1cc(-c2nc(-c3ccc(C)nc3OC)no2)cc(OCC)c1OCC | 0% | -3%
COc1cccc(NC(=O)CN(C)C(=O)c2sc3cc(Cl)ccc3c2Cl)c1 | -7% | -8%
Nc1ccc(C(=O)OCc2csc(-c3ccccc3)n2)cc1[N+](=O)[O-] | 0% | 4%
C=CCn1c(O)c(C=Nc2ccc(CN3CCCCC3)cc2)c(=O)[nH]c1=S | -8% | -5%
CN(C(=O)CN1C(=O)c2cccc(N)c2C1=O)C1CCCCC1 | / | ?
O=C(NCc1cccnc1)c1ccc(S(=O)(=O)N2CCOCC2)cc1 | 3% | -6%
COC(=O)[C@@]1(Cc2ccc(OC)cc2)[C@H]2c3cc(C(=O)N4CCCC4)n(Cc4c(CO)[nH]cc(C)c4=O)c3C[C@H]2CN1C(=O)c1ccccc1 | -28% | /
CC(CNC(=O)C(C)(C)C)NC(=O)C(C)(C)C (stereo not given) | 6% | 1%
Cc1ccc(NS(=O)(=O)c2ccc3c(c2)N(C)C(=O)CC(=O)N3C)cc1Cl | / | -6%
COc1ccc(S(=O)(=O)N(C)C[C@H]2Oc3ccc(NC(=O)CCC(F)(F)F)cc3C(=O)N([C@H](C)CO)C[C@@H]2C)cc1 | / | -2%
CC(=O)c1cccc(NC(=O)CNC(=O)Cc2ccccc2)c1 | -7% | 0%
COc1ccc(Cl)cc1NC(=O)c1cc(-c2ccccc2)on1 | -1% | -3%
Cc1cc(/C=C2/C(=N)N3C(=NC2=O)SN=C3S(C)(=O)=O)c(C)n1-c1ccccc1 | 5% | -20%
COc1ccccc1NS(=O)(=O)c1cccc(C(=O)NNC(=O)C(C)NC(=O)c2ccco2)c1 (stereo not given) | / | -2%
Cc1ccc(S(=O)(=O)NNC(=O)c2ccc(F)cc2)cc1 | 0% | 0%
COc1ccc2c(c1)NC(c1ccc(N(C)C)cc1)c1cccn1-2 (stereo not given) | 21% | -13%
CCOc1ccccc1NC(=O)c1ccc(F)c(S(=O)(=O)N2CCN(c3ccc(F)cc3)CC2)c1 | / | 1%
O=C(COc1ccccc1O)NNc1ccccc1 | -5% | -1%
Cc1ccccc1C(=O)Nc1ccccc1-n1cccc1 | 16% | -3%
COc1cc(C2C3=C(Nc4nc(N)[nH]c(=O)c42)c2ccccc2C3=O)ccc1O (stereo not given) | -12% | 8%
CC(NC(=O)c1ccccc1)C(=O)OCC(=O)c1c(N)n(C)c(=O)n(C)c1=O (stereo not given) | / | -3%
CCc1nnc(NC(=O)c2cccc(S(=O)(=O)N(C)c3ccccc3)c2)s1 | -2% | 0%
CCN(CC)c1ccc(N=Nc2nn(C)c(C)c2[N+](=O)[O-])cc1 | -26% | -4%

Some of these compounds in order of formula weight, descending:
SMILES | N370S GC | GCN5L2 inh
COc1ccc(S(=O)(=O)N(C)C[C@H]2Oc3ccc(NC(=O)CCC(F)(F)F)cc3C(=O)N([C@H](C)CO)C[C@@H]2C)cc1 | / | -2%
CCc1nnc(NC(=O)c2cccc(S(=O)(=O)N(C)c3ccccc3)c2)s1 | -2% | 0%
C=CCn1c(O)c(C=Nc2ccc(CN3CCCCC3)cc2)c(=O)[nH]c1=S | -8% | -5%
O=C(NCc1cccnc1)c1ccc(S(=O)(=O)N2CCOCC2)cc1 | 3% | -6%

Next part
SMILES | N370S GC | GCN5L2 inh
CN(C)CCSc1nnc2sc3ccccc3n12 | 1% | -12%
Cn1nc(C(=O)NNC(=O)c2cccc(Cl)c2)ccc1=O | / | -8%
CCC(=O)NC(c1ccco1)c1cc(Cl)c2cccnc2c1OC (stereo not given) | / | -12%&1%
CC1(C)C2([N+](=O)[O-])CN(CCO)CC1([N+](=O)[O-])CN(CCO)C2 | -1% | 0%
NC(=S)Nn1c(CCC(=O)O)ccc1-c1ccccc1 | 1% | 7%
O=C(c1ccc(Cl)cc1)c1cnc(Nc2ccccc2)s1 | 2% | -5%
COC(=O)c1cc(C(=O)OCC(=O)N2CCCCC2)cc([N+](=O)[O-])c1 | / | -9%
CCOC(=O)CSc1nc2cc(C(=O)N3CCC(C(N)=O)CC3)ccc2c(=O)n1-c1ccccc1 | 3% | -6%
Cc1nc2ccc(Br)cn2c1NC(C)(C)C | 2% | -4%
Cc1oc(C(C)(C)C)c(CN2CCOCC2)c1C(=O)O | 5% | -5%
Clc1ccc(-c2csc(=Nc3cccnc3)n2CCCn2ccnc2)cc1Cl | 8% | -4%
Oc1ccccc1-c1nnc(-c2ccc(C(F)(F)F)cc2)o1 | 23% | ?
CC1(OC(=O)C2CCCC2)C(=O)C=C2C=C(c3ccsc3)N(C(CO)CO)C=C2C1=O (stereo not given) | 7%[12.8 µM] | -14%
COC(=O)CCSc1nc(N2CCOCC2)c2c(c1C#N)CC(C)(C)OC2 | 6% | 3%
CC(=O)c1cccc(CN2CCCCC2C(=O)Nc2ccc(Oc3ccccc3)nc2)c1 (stereo not given) | -1% | -8%
Cn1c(N)c(C(=O)COC(=O)CCC2CCCCC2)c(=O)n(C)c1=O | 0% | -4%
Nc1nnnn1CC(=O)N/N=C/c1cc([N+](=O)[O-])ccc1Cl | -18% | -1%
CS(=O)(=O)N(CC(=O)N1CCCC1)c1cc(C(F)(F)F)ccc1Cl | -6% | 0%
CC(=O)NCCNc1nc2c(-c3ccc(C)cc3)nnn2c2ccccc12 | / | -3%
Nc1c(S(=O)(=O)c2ccccc2)nnn1-c1ccccc1 | 6% | 3%
c1ccc2c(OCCCCN3CCCC3)cccc2c1 | -13% | -8%
CC(=O)NCCc1ccc(S(=O)(=O)Nc2ccc(NC(=O)c3ccc(F)cc3)cc2)cc1 | -3% | -4%
COc1ccc(C(=O)NC2CCCCCC2)cc1S(=O)(=O)Nc1ccc(Br)cc1 | 5% | 1%
CCOc1c(Cl)cc(C(=O)Nc2cccc(C(=O)O)c2)cc1Cl | ? | 11%
Cc1cc(SCC(=O)NC2CCCC2)nc2ccccc12 | 20% | -6%

Some of the entries so far, as a markdown table.
| compound | N370S GC | GCN5L2 inh |
| --- | --- | --- |
| CN(C)CCSc1nnc2sc3ccccc3n12 | 1% | -12% |
| Cn1nc(C(=O)NNC(=O)c2cccc(Cl)c2)ccc1=O | / | -8% |
| CCC(=O)NC(c1ccco1)c1cc(Cl)c2cccnc2c1OC (stereo not given) | / | -12%&1% |
| CC1(C)C2([N+](=O)[O-])CN(CCO)CC1([N+](=O)[O-])CN(CCO)C2 | -1% | 0% |
| NC(=S)Nn1c(CCC(=O)O)ccc1-c1ccccc1 | 1% | 7% |

(listing goes on)
SMILES | N370S GC | GCN5L2 inh
CC1=NN(c2ccc(C)cc2)C(=O)/C1=C\c1ccc(Br)s1 | -23% | -4%
Cc1onc(-c2c(Cl)cccc2Cl)c1C(=O)N1CCCCC1 | -5% | -1%
Fc1cccc(-c2oncc2-c2nnnn2-c2ccc(Cl)cc2)c1 | 3% | -11%
O=C1CCc2cc(S(=O)(=O)NCCc3ccc(Cl)cc3)cc3c2N1CC3 | -5% | -2%
Cc1cc(NC(=O)c2cccs2)ncc1NC(=O)c1cccc(F)c1 | 3% | 0%
CCOC(=O)C1CCN(C(=O)C2CCN(S(=O)(=O)c3c(C)noc3/C=C/c3ccc(C)cc3)CC2)CC1 | / | 0%
CCOC(=O)c1sc2nc(C)nc(SC(C)C(=O)NC3CC3)c2c1C (stereo not given) | / | -2%
CC(C)OP(=O)(OC(C)C)C(Nc1ccccn1)c1ccc(F)cc1 (stereo not given) | -1% | -2%
COc1cc(OC)cc(OCC(O)Cn2cnc(-c3ccccc3)c2)c1 (stereo not given) | ? | 0%
Cc1ccc(NC(=O)c2cc(-c3ccc(C)o3)nc3ccccc23)nc1 | 3% | -29%
COc1ccc(C)cc1N(CC(=O)Nc1ccc(S(=O)(=O)N2CCCC2)cc1)S(C)(=O)=O | -2% | -4%
COc1ccc(/C=N/NC(=O)CCc2n[nH]c(=O)[nH]c2=O)cc1OC | 8% | -4%
CN1CCCC1CCO[C@@](C)(c1ccccc1)c1ccc(Cl)cc1 (stereo not given in full) | -21% | 5%
COc1ccc(NC(=O)CSc2ncnc3c2cnn3Cc2ccccc2)cc1OC | -1% | -2%
CC(=O)N1CCN(c2ccnc3cc(Cl)ccc23)CC1 | -9% | -3%
CCN(C(=O)C(C)OC(=O)C1C(C(=O)OC)=C(C)NC(C)=C1C(=O)OC)c1ccccc1 (stereo not given) | -3% | -8%
O=c1[nH]c(CN2CCN(S(=O)(=O)/C=C/c3ccccc3)CC2)nc2cc(Cl)ccc12 | 18% | -3%
Nn1c(=O)[nH]c2c([nH]c3ccccc32)c1=O | 20% | -6%
O=C(Nc1nccs1)c1ccc(CSc2ccccc2)o1 | -4% | -9%
O=C(NCc1nc2ccccc2[nH]1)c1ccccc1F | -6% | -2%
Cc1ccc(NC(=O)CN2CCN(C)CC2)cc1S(=O)(=O)N1CCOCC1 | -1% | -3%
COc1cccc(NC(=O)CSc2nnc(COc3ccc4c(c3)CCCC4)o2)c1 | -2% | -6%
COC(=O)c1c(NC(=O)CC2Sc3ccc(C(F)(F)F)cc3NC2=O)sc(C)c1C (stereo not given) | -7% | -1%
c1ccc(Nc2ncnc3sc4c(c23)CCC4)cc1 | 7% | -21%
COCCn1c(N)c(N(Cc2ccccc2)C(=O)Cc2ccccc2F)c(=O)[nH]c1=O | 0% | -4%

Following part
SMILES | N370S GC | GCN5L2 inh
COc1ccc(CCNC(=O)C(=O)Nc2ccc(C)c(C)c2)cc1OC | / | -2%
O=C(/C=C/c1ccccc1[N+](=O)[O-])NCc1ccc(Cl)cc1 | 8% | -4%
Cc1nc2ccccc2n1-c1ccccc1 | 10% | 2%
O=C(Nc1ccc(Cl)cn1)C1CC1 | 1% | -2%
N#CCCN(C(=O)COC(=O)C1CCN(c2ccc(C(F)(F)F)cn2)CC1)c1ccc(F)cc1 | -9% | -19%
Cc1cccc(C(=O)N2CCC(c3nc(-c4ccc(S(=O)(=O)N5CCOCC5)cc4)no3)CC2)c1 | 4% | -7%
Cc1noc(NS(=O)(=O)c2ccc(NC(=O)COc3ccccc3)cc2)c1C | 3% | -2%
CCCCn1cnc2c(oc3nc4c(cc32)CCCC4)c1=O | 24% | -3%

Entries of single compounds as entered above:
CC(NC(=O)c1ccccc1)C(=O)OCC(=O)c1c(N)n(C)c(=O)n(C)c1=O (stereo not given) is listed with N370S GC: /; GCN5L2 inh: -3%
Cc1nn(C)c(C)c1NC(=O)COc1ccc(F)cc1Br is listed with N370S GC: /; GCN5L2 inh: 4%

Screening data (PubChem BioAssay)
